# miR-21 FLuc: miR-21 reporter, rising signal; 340,000 tested, under 10 active; Potency, µM (series often up to 38.3 µM), without a hit: top-dose reporter change, positive = more light; HeLa miR-21 FLuc reporter, luciferase, 48 h; active = well fitted rising curve with a large enough effect; inconclusive = small, poorly fitted or top-dose-only effect; inactive = no such curve, though single readings can be large or run the other way;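 further: % of control where 0% means no effect; miR-21 action dims this reporter so a rising signal means less miR-21 action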
#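 HeLa miR-21-FLuc reporter line, endogenous miR-21; 2000 cells/well in DMEM/10% FBS; compound titration up to ~40uM final, 48 h, 37 degree Celsius; luciferase detection reagent, 15 min lysis, CCD luminescence.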
# GLA inh pH 4.5: blocks human alpha-galactosidase A at pH 4.5. P06280. purified enzyme, 4-MU-alpha-Gal fluorescence, pH 4.5. activity change, negative = inhibition, % at 105 µM. 230,000 tested, under 10 active. AID 1467; inconclusive = small, poorly fitted or top-dose-only inhibition, or a rising curve; inactive = flat fitted curve, though single readings scatter; no compound was filed as active;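 further: 0% = full activity with enzyme and -100% = basal without enzyme; dose as in the result columns while the protocol names 77 µM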
# Target sequence (P06280 whole entry, looked up): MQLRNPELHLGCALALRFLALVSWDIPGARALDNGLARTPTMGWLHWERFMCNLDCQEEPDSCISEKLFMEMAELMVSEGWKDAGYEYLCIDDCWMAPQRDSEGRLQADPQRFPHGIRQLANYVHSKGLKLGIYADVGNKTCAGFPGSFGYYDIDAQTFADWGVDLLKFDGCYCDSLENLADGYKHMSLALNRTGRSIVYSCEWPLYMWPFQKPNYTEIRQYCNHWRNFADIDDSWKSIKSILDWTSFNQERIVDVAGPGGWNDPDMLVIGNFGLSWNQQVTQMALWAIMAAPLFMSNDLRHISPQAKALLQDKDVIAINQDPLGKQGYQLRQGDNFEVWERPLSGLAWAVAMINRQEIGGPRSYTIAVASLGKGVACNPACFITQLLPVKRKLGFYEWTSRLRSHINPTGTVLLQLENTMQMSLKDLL
# Rango release inh: inhibitors of RanGTP-induced Rango-importin beta complex dissociation. O95149+P62826. Biochemical FRET Rango-importin beta, RanGTP-induced dissociation. Potency, µM (series often up to 46.1 µM), without a hit: at the top dose activity change, negative = inhibition. 0.071% of 340,000 active. AID 540253; active means falling FRET ratio curve, often poorly fitted, with flat reads before Ran was added; inconclusive means other falling curves, or compound fluorescence or quenching; inactive means flat or rising ratio curve;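 further: potency means the concentration at half of the fitted maximal effect; % of control where 0% means no effect; nearly all actives have a fitted effect of over 45% in size; -100% = wells without RanGTP and RCC1; the record marks most hits as doubtful in a second field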
#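 FRET read at 45 min, room temperature: inhibitors block the CFP/YFP signal rise when RanGTP (0.6 uM Ran, 2 mM GTP, 0.2 uM RCC1) frees Rango (0.1 uM) from importin beta (0.25 uM). Pre-read after 5 min compound exposure flags interference.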
# Rango complex inh: Rango-importin beta binding inhibition. Rango CFP/YFP FRET sensor + importin beta, 45 min. 0.031% of 340,000 active. Potency, µM (top dose mostly 92.2 µM), for inactives: at the highest dose inhibition of complex formation; active = rising FRET ratio curve, often small or poorly fitted; inconclusive = mostly compound fluorescence or quenching in the first reads; inactive = flat curves in all reads;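 further: potency means the concentration at half of the fitted maximal effect; 0% = DMSO wells and 100% = buffer wells lacking importin beta; nearly all actives have a fitted effect of over 15% in size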
#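 FRET biosensor Rango (snurportin 1 IBB between N-terminal EYFP and C-terminal Cerulean), 50 nM in PBS/1 mM DTT/0.02% Tween-20/0.1% BSA, preincubated 5 min RT with compound; 0.125 microM importin beta added, 45 min RT, CFP/YFP FRET ratio read.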
# An asterisk follows results filed as active; ? = inconclusive; · = no result given; & = joins results of further samples; [ ] = remark or other dose.
miR-21 FLuc	GLA inh pH 4.5	Rango release inh	Rango complex inh	canonical_smiles
1%	3	-11%	0.3%	CCOC(=O)CCC(=O)Nc1ccc(S(=O)(=O)N2CCCCC2)cc1
-4%	2	1%	-0.2%	CCCCN(C(=O)CCC(=O)Nc1cc(C)on1)C(C(=O)NC(C)(C)C)c1cccc(OC)c1OC (configuration not stated)
0%	-1[21.1 µM]	-4%	-1.9%	Cc1cc[n+](CC(=O)N2CCCc3ccccc32)cc1
·	·	22%	0.2%	O=C(c1ccc2c(=O)n3c(nc2c1)CCC3)N1CCN(S(=O)(=O)c2ccccc2Br)CC1
6%	3	11%	-0.2%	O=C(CSc1nc2ccccc2c(=O)n1-c1ccc(F)cc1F)Nc1ccc2c(c1)CCC2
-39%	-6	5%	-3.6%	COc1ccc(-c2cn(-c3ccc(OC)cc3)c(=S)[nH]2)cc1
-5%	·	1%	-0.2%	O=C(Cc1ccc(Cl)cc1)NCC(=O)N1CCCCCC1
-3%	-10[21.1 µM]	30%	-0.3%	OCCN1CCN(c2ncnc3c2c(-c2ccccc2)cn3-c2ccc(Br)cc2)CC1
21%	·	-13%	3.2%	Cc1ccc(S(=O)(=O)N(CC(=O)Nc2cccnc2)c2cccc(Br)c2)cc1
-2%	1	-14%	-3.3%	CC(C)(C)C(=O)Cn1c(NCCO)nc2ccccc21
-2%	-5	13%	-0.4%	O=C(OCc1nc2ccccc2[n+]([O-])c1C(=O)c1ccccc1)c1cccs1
-1%	5	1%	-1.5%	COc1cc(C2SCC(=O)N2CCc2ccc(OC)c(OC)c2)ccc1O (configuration not stated)
10%	5	11%	-2.2%	O=C(c1ccccc1)c1ccc(OCCOCCN2CCN(Cc3ccccc3)CC2)cc1
-31%	-4	-20%	?	Oc1ccc(/C=N/NC2=NCCCCC2)c(O)c1
-3%	·	-23%	-3.0%	CS(=O)(=O)Nc1ccc(Oc2ncccn2)cc1
-8%	8	9%	1.7%	COc1ccc(-c2nn(C)c(=O)c3ccccc23)cc1CNS(C)(=O)=O
-2%	-2	-20%	?	CN(C)/C=N/c1sccc1C(N)=O
18%	-23	-13%	1.2%	CCO[C@@H]1OC(C(=O)N2CCN(Cc3ccc4c(c3)OCO4)CC2)=C[C@H](c2ccc(C(F)(F)F)cc2)[C@H]1CCCO
3%	·	-9%	0.3%	CCOc1cc(/C=C\c2nc(O)c([N+](=O)[O-])c(=O)[nH]2)ccc1OC(C)C
1%	-7	0%	?	Cc1nccn1CCCNCc1c(C(=O)N2CCCCCCC2)nc2ccc(Cl)cn12
-29%	2	-17%	-0.5%	COc1ccc(-c2nc3ccc(N4CCN(C)CC4)cc3c(=O)[nH]2)cc1
·	·	8%	-0.3%	CCN(Cc1ccccc1)c1ccccc1
·	·	-23%	-3.0%	COc1ccc(-c2c(C#Cc3ccsc3)c3cc(-c4ccc5c(c4)OCCO5)ccc3n2C)cc1
-12%	5	-8%	-0.7%	Cc1ccc(S(=O)(=O)N2CCC(=O)N(CCO)CC2)cc1
1%	·	10%	-1.0%	COc1ccc(C(=O)Nn2c(CC(C)C)nc3cc(OC)c(OC)cc3c2=O)c(OC)c1
3%	-5	13%	-3.6%	CNC(=O)COC(=O)c1cc(F)c(F)cc1Cl
-4%	·	-4%	-1.8%	CCOC(=O)c1c(C)[nH]c(C)c1S(=O)(=O)N(C)CC(=O)Nc1ccccc1C
-1%	4	0%	-0.7%	CCOC(=O)C1CCN(C(=O)C(C)Oc2ccc(Br)cc2)CC1 (configuration not stated)
-3%	-1	-11%	1.4%	COCCN(C(=S)Nc1c(C)cccc1C)C(C)c1cccnc1 (configuration not stated)
-17%	-3	0%	?	CCOc1ccccc1/C=N/Nc1nc2c(N)ncnc2n1[C@H]1O[C@@H](CO)[C@H](O)[C@@H]1O

# Grouped by structure: the entries above with fluorine (three)
miR-21 FLuc	GLA inh pH 4.5	Rango release inh	Rango complex inh	canonical_smiles
6%	3	11%	-0.2%	O=C(CSc1nc2ccccc2c(=O)n1-c1ccc(F)cc1F)Nc1ccc2c(c1)CCC2
18%	-23	-13%	1.2%	CCO[C@@H]1OC(C(=O)N2CCN(Cc3ccc4c(c3)OCO4)CC2)=C[C@H](c2ccc(C(F)(F)F)cc2)[C@H]1CCCO
3%	-5	13%	-3.6%	CNC(=O)COC(=O)c1cc(F)c(F)cc1Cl

# The list goes on:
miR-21 FLuc	GLA inh pH 4.5	Rango release inh	Rango complex inh	canonical_smiles
·	·	4%	-1.4%	COc1ccc(-c2sc3cc4c(cc3c2-c2ccc3c(c2)OCCO3)OCO4)cc1
·	·	11%	-3.2%	Cc1sc(NC(=O)C2=COCCO2)nc1-c1ccc(Br)cc1
-3%	3	28%	-1.1%	Cc1ccc(C(CC(=O)c2ccco2)SCCO)cc1 (configuration not stated)
-3%	-13	8%	-4.0%	COc1ccc(C2NC(=S)NC(C)=C2C(=O)Nc2ccccn2)cc1OC (configuration not stated)
1%	·	2%	-1.3%	CCCC[C@H]1COCCS(=O)(=O)N1Cc1cccc(Cl)c1
-10%	7	2%	3.0%	N#CCSc1nnc(-c2cnccn2)n1Cc1ccccc1
-1%	-3	22%	?	COC(=O)c1cc(COc2ccc3oc(C)c(C(=O)OC(C)C)c3c2)c(C)o1
1%	·	-10%	-2.8%	CCOCCCNC(=O)C1c2ccccc2Oc2ccccc21
5%	-9	-9%	-0.6%	COC(=O)C1=C(C)Nc2nc3ccccc3n2C1c1cc(OC)c(OC)c(OC)c1 (configuration not stated)
·	·	-14%	-1.8%	CS(=O)(=O)c1ccc(Cl)c(NC(=O)C2CC(=O)N(Cc3ccco3)C2)c1 (configuration not stated)
1%	5	-12%	12%	Cc1ccc(S(=O)(=O)NCCOC(=O)Nc2sc(=S)n(C)c2C)cc1
-3%	·	17%	2.3%	Nc1c(/C=C2\C=Nc3ccccc32)c(=O)nc2sc(CC(=O)N3CCOCC3)nn12
·	·	3%	1.9%	CSc1nc(N)nc2c1ncn2CC(=O)NCCCc1ccccc1
-1%	-7	-8%	0.6%	CCSc1nc(-c2cccs2)nc2ccccc12
·	·	-2%	0.4%	Cc1ccc(S(=O)(=O)N(C)C)cc1NC(=O)c1ccc(-n2cncn2)c([N+](=O)[O-])c1
-7%	1	-13%	-1.5%	CCC(CC)C(=O)Nc1cc(C)c2c(=O)oc3ccccc3c2n1
2%	-7	11%	1.0%	Cc1ccc(S(=O)(=O)N(C)Cc2ccc(C(=O)NN=C3C4CC5CC(C4)CC3C5)cc2)cc1
-3%	·	12%	-2.2%	Cc1ccccc1C(=O)Nc1nnc(S(=O)(=O)N2CCCCC2)s1
0%	3	·	·	Cc1sc2nc(CSc3ccc([N+](=O)[O-])cc3)[nH]c(=O)c2c1C
1%	·	14%	-3.7%	COc1ccc(C(C(=O)NCC2CCCO2)N(Cc2ccccc2)C(=O)CNC(=O)c2ccco2)cc1OC (configuration not stated)
-3%	-1	4%	2.5%	Cc1oc(-c2ccc(Cl)cc2)nc1CN1CCC(C(=O)NCc2ccco2)CC1
-21%	2	-9%	1.5%	CCC(=O)Nc1ccc(C(=O)Nc2ccc3c(c2)OCO3)cc1
-2%	7	-7%	0.0%	COc1cc(OC)c(OC)cc1CN1CCc2ccccc2C1
-1%	-2	-15%	0.3%	COCCC(=O)N1CCCC(CNS(=O)(=O)c2ccc(OC)cc2)C1 (configuration not stated)
-4%	5	19%	-2.3%	COc1ccc(C(=O)Nc2ccccc2C(=O)N2CCCCC2C)cc1 (configuration not stated)
-3%	2	4%	-5.6%	COc1ccc(C2C(C(C)=O)=C(O)C(=O)N2c2nccs2)cc1OC (configuration not stated)
0%	-16	0%	-0.2%	CCC(=O)NC(=S)Nc1ccc(NC(=O)c2cccnc2)cc1
21%	-18	-3%	-2.1%	COC(=O)[C@H](Cc1ccccc1)NC(=O)N1CCN(Cc2ccccc2)CC1
0%	-8	9%	3.1%	COCCNS(=O)(=O)c1cc(C(=O)O)ccc1OC
-7%	2	1%	4.3%	CC(Oc1ccc(Cl)cc1Cl)C(=O)Nn1cnnc1 (configuration not stated)
-2%	·	-3%	-0.2%	O=C(O)c1cc(N2C(=O)CCC2=O)ccc1Cl
-9%	·	-7%	?	COc1ccc2oc(=O)c(C(=O)NC3CCCCCC3)cc2c1
2%	-23	18%	-0.6%	CC1=[N+](C)N(c2ccccc2)C(=O)C1N=Cc1ccc(Cl)cc1 (configuration not stated)
-12%	4	-15%	-2.2%	Fc1ccccc1OCCCCCN1CCCC1
·	·	-5%	3.2%	CCCCOc1ccc(C(=O)NCC(=O)N(C)Cc2nc3ccccc3c(=O)[nH]2)cc1
-3%	·	-9%	3.1%	CCn1c(=O)n(CC)c2cc(N3CCCC3)c(NC(=O)c3ccccc3Br)cc21
·	·	-15%	-1.3%	Cc1ccc(OCC(=O)NNC(=O)C2CC(=O)N(c3ccc4c(c3)OCCO4)C2)cc1 (configuration not stated)
-2%	-3	3%	-0.1%	O=C(CCSc1nnc2scc(-c3ccccc3)n12)NCc1ccc2c(c1)OCO2
·	-2&1	-7%	1.4%	COc1cc(CNC(=O)CCCCCCC(C)C)ccc1O
-3%	-2	9%	-1.3%	Cc1ccc(C)c(NC(=O)CSc2nnc(-c3ccco3)o2)c1
7%	-6	-3%	-1.7%	COc1cccc(/C=N/NC(N)=S)c1OCc1ccccc1Cl
10%	·	-3%	-0.4%	CCN(CC)C(=O)c1ccc(-c2nnc(Nc3ccc(C(=O)N(C)C)cc3)c3ccccc23)cc1
-72%	-9	?	?	COc1cc(/C=N/OCC(=O)Nc2cc(C)cc(C)c2)ccc1OCc1ccc(Cl)cc1
-3%	-1	-26%	?	CNC(=O)CN1C(=O)c2cccc3cccc1c23
·	·	?	?	O=C1C=Cc2cccc3ccc(O)c1c23
10%	·	2%	5.3%	COCCCNC(=O)Cc1c(C)c2c(cc(C)c3c(C(C)(C)C)coc32)oc1=O
-1%	-2	1%	4.7%	COC(=O)C1=C(C)N(C)C(=O)NC1c1ccc(C)cc1 (configuration not stated)
-21%	3	-3%	0.3%	O=C(CSc1nnnn1-c1ccccc1)N1N=CCC1c1ccccc1 (configuration not stated)
0%	-1	5%	-1.9%	CCCOc1ccc2c(=O)c(N3C(=O)c4ccccc4C3=O)c(C)oc2c1
-6%	7	15%	-0.3%	COc1cc(Br)c(CC(=O)O)cc1OC
1%	5	-16%	2.3%	COc1ccc(S(=O)(=O)NC2CC2)cc1C(=O)N1CCOCC1
-5%	-3	-9%	-3.5%	COc1ccc(CN2C(=O)c3cccnc3C2Nc2ccc(OC)c(Cl)c2)cc1 (configuration not stated)
6%	-7	11%	-0.7%	O=C(CCc1nnc(C2CCCCC2)o1)N1CCC(Oc2cccnc2)CC1
0%	·	-12%	2.3%	C=Cc1ccc(Cn2c(=O)n(CCCOC)c(=O)c3sccc32)cc1
-1%	-3	-2%	-1.3%	COCCNC(=O)C1c2ccccc2C(=O)N(CCOC)C1c1ccc(F)cc1 (configuration not stated)
-16%	1	?	?	O=c1[nH]c2ccccc2nc1/C=C(\O)C1CC1
6%	·	1%	-4.4%	COc1ccc(N2CCN(CC(=O)c3ccc(O)cc3O)CC2)cc1
1%	·	-4%	?	O=C(O)c1c2c(nc3ccc(S(=O)(=O)N4CCC(C(=O)NCc5ccccc5Cl)CC4)cc13)CCCC2
1%	·	2%	-1.3%	C[C@@H](CN=[N+]=[N-])CN1CC[C@H](C(C)(C)C)CCC1=O
1%	-6	-10%	-2.6%	COc1cc(OC)cc(C(=O)N2c3ccc(F)cc3CCC2C)c1 (configuration not stated)
·	·	-1%	-1.9%	COc1ccc(S(=O)(=O)NCc2cccnc2)cc1NC(=O)c1ccc(C)cc1
-5%	4	-7%	-0.3%	CN1CCN(C(=O)/C(C#N)=C/c2ccc(F)cc2)CC1
-7%	-2	-3%	-0.4%	O=c1cc(CSc2ccccn2)nc(N2CCN(c3ccccc3)CC2)[nH]1

# Individual results from the list.
# `O=c1[nH]c2ccccc2nc1/C=C(\O)C1CC1` | GLA inh pH 4.5: 1
# `CCCOc1ccc2c(=O)c(N3C(=O)c4ccccc4C3=O)c(C)oc2c1` | GLA inh pH 4.5: -1
# `COCCNC(=O)C1c2ccccc2C(=O)N(CCOC)C1c1ccc(F)cc1` (configuration not stated) | Rango complex inh: -1.3%

# From PubChem

# Only part of the results is shown; the hit share may differ from the screen's.
